# Rango-impB inh: Rango-importin beta binding inhibition. AID 540263. Potency, µM (titrated, usually from 92.2 µM), without a hit: at the highest dose inhibition of complex formation. Rango CFP/YFP FRET sensor + importin beta, 45 min. 340,000 compounds, 0.031% hits. Q14974; active = rising FRET ratio curve, often small or poorly fitted; inconclusive = mostly compound fluorescence or quenching in the first reads; inactive = flat curves in all reads;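 note: potency is the fitted concentration of half-maximal effect; 0% = DMSO wells and 100% = buffer wells lacking importin beta; nearly all actives have a fitted effect of over 15% in size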
# Target sequence (Q14974 whole entry, looked up): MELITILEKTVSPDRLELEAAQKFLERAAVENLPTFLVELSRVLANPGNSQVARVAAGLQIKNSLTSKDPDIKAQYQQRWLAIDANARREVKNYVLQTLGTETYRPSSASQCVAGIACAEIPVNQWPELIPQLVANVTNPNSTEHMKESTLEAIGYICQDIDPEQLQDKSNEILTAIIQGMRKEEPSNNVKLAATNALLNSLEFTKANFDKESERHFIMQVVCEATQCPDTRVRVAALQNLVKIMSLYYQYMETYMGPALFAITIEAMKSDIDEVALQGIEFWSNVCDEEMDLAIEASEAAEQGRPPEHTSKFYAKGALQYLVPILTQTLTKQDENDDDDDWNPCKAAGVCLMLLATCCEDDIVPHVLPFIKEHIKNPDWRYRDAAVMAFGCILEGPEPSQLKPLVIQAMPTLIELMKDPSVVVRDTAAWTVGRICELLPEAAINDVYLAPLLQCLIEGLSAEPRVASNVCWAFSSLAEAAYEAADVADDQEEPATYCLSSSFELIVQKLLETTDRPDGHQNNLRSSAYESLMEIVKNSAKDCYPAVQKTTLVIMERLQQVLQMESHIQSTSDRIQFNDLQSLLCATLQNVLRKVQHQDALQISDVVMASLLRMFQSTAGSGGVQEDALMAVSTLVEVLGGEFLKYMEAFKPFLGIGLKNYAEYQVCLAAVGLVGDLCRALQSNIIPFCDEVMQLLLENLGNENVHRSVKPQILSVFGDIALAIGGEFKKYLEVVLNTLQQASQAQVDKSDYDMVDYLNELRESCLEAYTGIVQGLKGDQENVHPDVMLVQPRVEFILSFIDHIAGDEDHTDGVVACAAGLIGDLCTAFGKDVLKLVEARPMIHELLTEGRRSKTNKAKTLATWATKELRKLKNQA
#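 FRET biosensor Rango (snurportin 1 IBB between N-terminal EYFP and C-terminal Cerulean), 50 nM in PBS/1 mM DTT/0.02% Tween-20/0.1% BSA, preincubated 5 min RT with compound; 0.125 microM importin beta added, 45 min RT, CFP/YFP FRET ratio read.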
# Rango release inh: inhibitors of RanGTP-induced Rango-importin beta complex dissociation; O95149+P62826; Biochemical FRET Rango-importin beta, RanGTP-induced dissociation; Potency, µM (doses to about 46.1 µM), without a hit: top-dose activity change, negative = inhibition; 340,000 compounds, 0.071% hits; AID 540253; active means falling FRET ratio curve, often poorly fitted, with flat reads before Ran was added; inconclusive means other falling curves, or compound fluorescence or quenching; inactive means flat or rising ratio curve;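 note: potency is the fitted concentration of half-maximal effect; % of control where 0% means no effect; nearly all actives have a fitted effect of over 45% in size; -100% = wells without RanGTP and RCC1; the record marks most hits as doubtful in a second field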
#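 Recombinant Rango FRET biosensor (EYFP–snurportin 1 IBB–cerulean CFP10) at 0.1 uM premixed with 0.25 uM importin beta in PBS, 1 mM DTT, 0.02% Tween-20, 0.1% BSA. Compound added 5 min; RanGTP-RCC1 (0.6 uM Ran, 2 mM GTP, 0.2 uM RCC1) then triggers release, read at 45 min.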
# GLA inh pH 4.5: blocks human alpha-galactosidase A at pH 4.5; P06280; purified enzyme, 4-MU-alpha-Gal fluorescence, pH 4.5; activity change, negative = inhibition, % at 105 µM; 230,000 tested, under 10 active; inconclusive = small, poorly fitted or top-dose-only inhibition, or a rising curve; inactive = flat fitted curve, though single readings scatter; no compound was filed as active;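 note: 0% = full activity with enzyme and -100% = basal without enzyme; dose as in the result columns while the protocol names 77 µM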
# miR-21 reporter: miR-21 reporter, rising signal | Potency, µM (highest dose often 38.3 µM), inactives show at the highest dose reporter change, positive = more light | 340,000 tested, under 10 active | HeLa miR-21 FLuc reporter, luciferase, 48 h; active = well fitted rising curve with a large enough effect; inconclusive = small, poorly fitted or top-dose-only effect; inactive = no such curve, though single readings can be large or run the other way;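 note: % of control where 0% means no effect; miR-21 action dims this reporter so a rising signal means less miR-21 action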
#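 Luminescence from a firefly luciferase reporter carrying a miR-21 binding site downstream, stably expressed under a CMV promoter in HeLa cells that make miR-21 endogenously, reports miRNA modulation after 48 h compound exposure up to approximately 40uM final.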
# Active calls of the source: *; ? = inconclusive; / = no result given. The list is partial; count on the stated rates, not on these rows.
nr	SMILES	Rango-impB inh	Rango release inh	GLA inh pH 4.5	miR-21 reporter
1	Cc1ccccc1NC(=O)CSc1nc(N)c(C#N)c(-c2cccs2)c1C#N	-1.7%	12%	7	-11%
2	COc1ccc(N2CCN(C(=O)COC(=O)[C@@H](NC(=O)c3ccccc3Cl)C(C)C)CC2)cc1	-2.2%	17%	/	/
3	Cc1ccc(C(=O)C2CCN(CC(=O)Nc3ccc(N(C)C)cc3)CC2)cc1	0.3%	3%	3	-6%
4	CCN(CC)CCN(Cc1cc2cc3c(cc2[nH]c1=O)OCCO3)C(=S)NCC(C)C	0.8%	-10%	/	0%
5	CCN(CC(=O)Nc1c(F)cccc1F)C(=O)C(C)SCc1nc2sc(C)c(C)c2c(=O)[nH]1 (stereo unspecified)	0.2%	-2%	/	4%
6	CCOCCCNC(=O)CN1C(=O)/C(=C\c2ccc(C)cc2)Sc2ccccc21	?	-5%	-2	-7%
7	CCCCN(C(=O)CCC(=O)OCC(=O)NCc1ccccc1)c1c(N)n(CCC)c(=O)[nH]c1=O	0.5%	-9%	/	/
8	O=C(CSc1nnnn1Cc1ccccc1)c1ccccc1F	0.4%	6%	3	-1%
9	COc1ccc(N2CCN(C(=O)CCNC(=O)c3ccc(Br)cc3)CC2)cc1	3.6%	1%	/	/
10	Cc1nn2c(N)c(C#N)cnc2c1-c1ccccc1	-2.0%	-4%	2	-84%
11	CC(C)C(OC(=O)c1nsc(Cl)c1Cl)C(=O)NCC1CCCO1 (stereo unspecified)	-0.4%	-4%	/	4%
12	O=[N+]([O-])c1ccc(N2CCN(S(=O)(=O)Cc3ccccc3)CC2)cc1N1CCOCC1	1.5%	0%	-12	-5%
13	COc1ccc(-n2nnnc2SCC(=O)NCCc2ccc(OC)c(OC)c2)cc1	?	-16%	-4	-7%
14	CCC(c1nnnn1Cc1ccc(OC)cc1)N1CCN(c2ccc(OC)cc2)CC1 (stereo unspecified)	1.7%	2%	-1	-4%
15	COCCNC(=S)N1CCC(C(=O)c2ccc(C)cc2)CC1	0.4%	-2%	/	0%
16	Cc1ccc(S(=O)(=O)N(C)CC(=O)Nc2nc3ccccc3s2)cc1	-0.7%	15%	-10	0%
17	NC(=O)c1sc2nc3c(c(-c4cccnc4)c2c1N)CCC3	-2.5%	1%	-11	1%
18	CCOC(=O)c1c(NC(=O)Cc2ccccc2)sc2c1CCN(C)C2	-1.6%	-5%	/	0%
19	COC(=O)c1cccc(NC(=O)CN(c2ccc3c(c2)OCO3)S(C)(=O)=O)c1C	-2.5%	14%	-1	-7%
20	CCOC(=O)C1(CCc2ccccc2)CCN(Cc2cccc3nccnc23)CC1	0.8%	3%	-12	14%
21	Cc1[nH]c2ccccc2c1C(c1ccccn1)N1CCC(C)CC1 (stereo unspecified)	5.4%	20%	0	1%
22	Cc1ccc(C)c(C(=O)CN2C(=O)C(=O)N(C3CCCC3)C2=O)c1	3.1%	-8%	/	/
23	CCc1ccc(N2CC(C(=O)Nc3ccc4c(c3)OCO4)CC2=O)cc1 (stereo unspecified)	2.4%	23%	/	/
24	CN(c1ccc(OCC(=O)Nc2ccc3[nH]c(=O)[nH]c3c2)cc1)S(=O)(=O)c1ccc(Cl)cc1	0.1%	15%	?	3%
25	CC(=O)NS(=O)(=O)c1ccc(NC(=O)c2ccc(Cl)cc2[N+](=O)[O-])cc1	-0.7%	25%	-12	-1%
26	O=C(NCCNC(=O)c1ccc(Cl)cc1Cl)c1ccccn1	-0.5%	13%	/	1%
27	Cc1cc(C)cc(NC(=O)c2ccc(Cn3nc(C)c(Cl)c3C)o2)c1	-0.1%	-1%	-8	0%
28	CSc1nsc(/C=C/Nc2ccc(F)cc2)c1C#N	?	?	12	-6%
29	COc1cc(CNC[C@H]2O[C@@H](n3cnc(C(N)=O)n3)[C@H](O)[C@@H]2O)ccc1OCc1cccc(Cl)c1	-2.3%	-17%	/	/
30	Cc1ccc(NC(=O)CN2CCC(NC(=O)c3ccccc3F)CC2)cc1C	-3.9%	10%	/	4%

# Shown as labelled records: part of the list above.
20: CCOC(=O)C1(CCc2ccccc2)CCN(Cc2cccc3nccnc23)CC1
  Rango-impB inh: 0.8%
  Rango release inh: 3%
  GLA inh pH 4.5: -12
  miR-21 reporter: 14%
11: CC(C)C(OC(=O)c1nsc(Cl)c1Cl)C(=O)NCC1CCCO1 (stereo unspecified)
  Rango-impB inh: -0.4%
  Rango release inh: -4%
  GLA inh pH 4.5: /
  miR-21 reporter: 4%

# New compounds follow.
nr	SMILES	Rango-impB inh	Rango release inh	GLA inh pH 4.5	miR-21 reporter
31	Cc1cc(C)c(NC(=S)NC(=O)c2c(Cl)c(C)nn2C)c([N+](=O)[O-])c1	0.5%	1%	1	-6%
32	COc1cc(OC)cc(C(=O)NCC(=O)OC(C)C(=O)NC(C)C2CC3CCC2C3)c1 (stereo unspecified)	0.5%	-4%	/	/
33	COc1ccc(CC(=O)Nc2sc3c(c2C#N)CC(C)(C)NC3(C)C)cc1OC	0.5%	14%	/	3%
34	CCCCn1c(CCCNC(=O)CC)nc2ccccc21	-1.2%	1%	2	0%
35	O=C(COC(=O)c1ccco1)NCc1ccc(Cl)cc1Cl	3.8%	4%	/	/
36	COC(=O)c1ccc(CN2CCCC(CNC(=O)Cc3ccc(OC)cc3)C2)cc1 (stereo unspecified)	4.7%	3%	/	0%
37	CC(=O)CCc1c(C)nc2ccc(C)cc2c1Cl	0.1%	10%	2	1%
38	Cc1ccccc1NC(=O)C1CCC(=O)N1 (stereo unspecified)	1.8%	-4%	/	-2%
39	COc1ccc(C2CC(C(F)(F)F)n3ncc(C(=O)NCC4CCCO4)c3N2)cc1OC (stereo unspecified)	-5.2%	-24%	4	-23%
40	Cc1nn(Cc2ccccc2)c(C)c1/C=N/NC(=O)c1ccccc1O	6.0%	17%	-10	-18%
41	Cc1onc(-c2ccccc2)c1C(=O)c1c[nH]c(C(=O)NCCCN2CCOCC2)c1	0.4%	24%	0	-2%
42	Cc1ccc(NC(=O)Cc2ncon2)cc1Cl	-0.3%	0%	-2	-25%
43	Cc1ccc(S(=O)(=O)CCSc2nccn2C)cc1	6.3%	8%	-1	-1%
44	Cc1ccc([C@@H]2CC=C(C(=O)O)[C@H](c3cccc(F)c3)N2S(=O)(=O)c2ccccc2C)cc1	-0.8%	2%	/	/
45	Cc1ccsc1/C=N/NC(=O)c1nnn(-c2nonc2N)c1-c1ccccc1	9.2%	-10%	/	-2%
46	O=C(NC1CC1)C(=O)c1c[nH]c2ccccc12	0.5%	-23%	/	-17%
47	O=C(Nc1ncc(S(=O)(=O)c2ccc([N+](=O)[O-])cc2)s1)c1cccnc1	3.0%	45%	-4	-1%
48	CCOC(=O)C1CCCN(CC(=O)Nc2c(F)c(F)c(F)c(F)c2F)C1 (stereo unspecified)	2.5%	-28%	-4	-1%
49	Cn1c(=O)c2c(nc(NCc3ccc4c(c3)OCO4)n2Cc2ccccc2)n(C)c1=O	2.5%	-6%	-2	20%
50	Cc1cccc(COc2ccccc2C(=O)OCC(=O)N(C)c2c(N)n(Cc3ccccc3)c(=O)[nH]c2=O)c1	2.8%	3%	/	6%
51	COc1cc(OC)cc(OC(=O)c2ccc3c(=O)n4c(nc3c2)CCC4)c1	-2.3%	17%	/	/
52	O=C(N/C(=C\c1ccc(Br)cc1)C(=O)N1CCOCC1)c1ccc([N+](=O)[O-])cc1	2.6%	10%	/	-12%
53	CC(=O)Nc1ccc(S(=O)(=O)N2CCCC2C(=O)Nc2ccc3c(c2)OCCO3)cc1 (stereo unspecified)	?	-8%	-5	-10%
54	N#C/C(=C\c1ccc(Oc2ccc(C(F)(F)F)cc2[N+](=O)[O-])cc1)c1nc2ccccc2[nH]1	?	-12%	5	-16%
55	C/C=C(\C)CN1CCN(c2cc(C)ccc2C)CC1	3.8%	-4%	-4	-1%
56	NC(=O)C1CCN(C(=O)c2cnn(-c3ccccc3)c2NC(=O)c2cccc(F)c2)CC1	-1.5%	-7%	/	-2%
57	CCOC(=O)N1CCN(C(=O)/C(=C/c2ccc(OC)cc2)NC(=O)c2ccccc2)CC1	-3.0%	-3%	-5	-4%
58	C/C(=N\NC(=O)c1ccccc1[N+](=O)[O-])c1ccc(Br)s1	-3.4%	-7%	6	-4%
59	Nn1c(SC/C=C/c2ccccc2)nnc1-c1ccccn1	-2.0%	3%	11	-8%
60	O=C(Cc1ccccc1Cl)NC1(O)C(=O)c2ccccc2C1=O	0.0%	-17%	-8	3%

# Rewritten with values ahead of the structure: part of the list above
No. | Rango-impB inh | Rango release inh | GLA inh pH 4.5 | miR-21 reporter | structure
58 | -3.4% | -7% | 6 | -4% | C/C(=N\NC(=O)c1ccccc1[N+](=O)[O-])c1ccc(Br)s1
46 | 0.5% | -23% | / | -17% | O=C(NC1CC1)C(=O)c1c[nH]c2ccccc12
59 | -2.0% | 3% | 11 | -8% | Nn1c(SC/C=C/c2ccccc2)nnc1-c1ccccn1
45 | 9.2% | -10% | / | -2% | Cc1ccsc1/C=N/NC(=O)c1nnn(-c2nonc2N)c1-c1ccccc1
50 | 2.8% | 3% | / | 6% | Cc1cccc(COc2ccccc2C(=O)OCC(=O)N(C)c2c(N)n(Cc3ccccc3)c(=O)[nH]c2=O)c1
36 | 4.7% | 3% | / | 0% | COC(=O)c1ccc(CN2CCCC(CNC(=O)Cc3ccc(OC)cc3)C2)cc1 (stereo unspecified)
42 | -0.3% | 0% | -2 | -25% | Cc1ccc(NC(=O)Cc2ncon2)cc1Cl

# Values in list order from the entries so far.
# Nos. 38 to 44 in Rango release inh, in turn: -4%, -24%, 17%, 24%, 0%, 8%, 2%

# The results go on:
nr	SMILES	Rango-impB inh	Rango release inh	GLA inh pH 4.5	miR-21 reporter
61	COc1cccc(C=O)c1OC(=O)N1CCOCC1	-2.8%	-18%	/	-3%
62	CCCn1c(/N=C/c2ccc3c(c2)OCO3)nc2ccccc21	-1.0%	-10%	-4	1%
63	O=c1c2ccccc2nc(CSc2nnnn2-c2ccccc2)n1-c1ccccc1	1.4%	0%	5	-1%
64	CCOC(=O)CNC(=O)c1sc(NC(=O)c2cccc(F)c2)nc1C	0.6%	-8%	1	-17%
65	CCOc1ccc(C(=O)NCC(=O)NCC(c2cccs2)N2CCOCC2)cc1 (stereo unspecified)	-2.3%	-2%	/	/
66	O=C1OC(Nc2ccc(Br)cc2F)c2ccccc21 (stereo unspecified)	7.6%	2%	4	1%
67	COc1ccc(Cn2c(=O)c3c(nc(NCCO)n3C)n(C)c2=O)cc1	0.2%	2%	-5	-20%
68	NS(=O)(=O)c1ccc(Cl)c(C(=O)Nc2ccccc2[N+](=O)[O-])c1	3.1%	-8%	1	-2%
69	COc1ccc(S(=O)(=O)N2CCOCC2)cc1C(=O)Nc1ccc2c(c1)OCO2	1.7%	5%	/	-4%
70	O=C1CN(c2nc3nonc3nc2N2CCCCC2)CCN1	1.9%	7%	-6	-3%
71	S=c1[nH]nc(COc2ccc3ccccc3c2)o1	3.3%	-12%	5	-43%
72	Cc1cc(C(=O)N/N=C/c2c[nH]c3ccccc23)c(C)o1	-0.5%	2%	-1	-17%
